Screening data from PubChem.
HPGD inh: blocks human HPGD enzyme activity | P15428 | purified HPGD, NADH fluorescence kinetic, PGE2 substrate | Potency, µM, for the others: top-dose activity change, negative = inhibition, actives largely listed as inhibitors | actives 4.3% (n = 150,000) | AID 894; active = well fitted inhibition curve with a large enough effect (not every such curve was filed as active); inconclusive = small, poorly fitted or top-dose-only effect, or another doubt; inactive = no such curve, though single readings can be large or run the other way;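 note: top concentration of the series not given in the record; plate controls included wells without enzyme; inactives centre near -10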
Target sequence (P15428 whole entry, looked up): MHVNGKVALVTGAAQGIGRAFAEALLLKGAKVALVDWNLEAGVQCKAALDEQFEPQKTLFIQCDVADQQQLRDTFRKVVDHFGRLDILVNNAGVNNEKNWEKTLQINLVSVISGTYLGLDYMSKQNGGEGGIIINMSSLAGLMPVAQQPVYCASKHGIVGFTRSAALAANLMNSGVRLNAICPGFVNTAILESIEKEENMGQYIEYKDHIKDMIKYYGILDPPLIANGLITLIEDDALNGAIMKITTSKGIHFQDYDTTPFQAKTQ
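20 nM HPGD preincubated 15 min at room temperature with compound in 50 mM Tris-HCl pH 8, 0.01% Tween 20. Started with 1 mM NAD+ and 30 uM prostaglandin E2; NADH fluorescence (360/450 nm) read 5 times over 30-s intervals, last minus first.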
The depositor's hits bear a star; ? = inconclusive; & = joins results of further samples. % is set by controls: 0 for no effect and ±100 for the full control effect; potency is the fitted concentration of half-maximal effect.

| Molecule | HPGD inh |
| --- | --- |
| CC[C@@H](C)[C@H]1O[C@]2(CC[C@@H]1C)C[C@@H]1C[C@@H](C/C=C(\C)[C@@H](O[C@H]3C[C@H](OC)[C@@H](O[C@H]4C[C@H](OC)[C@@H](O)[C@H](C)O4)[C@H](C)O3)[C@@H](C)/C=C/C=C3\CO[C@@H]4[C@H](O)C(C)=C[C@@H](C(=O)O1)[C@]34O)O2 | -6% |
| O/N=C1\CCCC\C1=C/c1ccccc1 | 4.5µM* |
| CCOc1ccc(OCc2cccc(C(=O)O)c2)cc1 | -14% |
| CC1(C)CC(=O)C2=C(C1)NC1=C(C(=O)c3ccccc31)C2c1ccccc1 (configuration not stated) | -19% |
| O=c1c(-c2ccccc2)c(O)c2cccc3c2n1CCC3 | -17% |
| CN(C)Cc1c(O)ccc2occ(C(O)c3ccccc3)c12 (configuration not stated) | -11% |
| O=C(N/N=C/c1cccs1)c1cccc(NC(=O)c2ccccc2Cl)c1 | -15% |
| O=C(Nc1ccc(Cl)cc1)Nc1nnc(CSCc2ccc(Cl)cc2)s1 | -3% |
| Cc1nc(NCCN2CCOCC2)c2oc3ccccc3c2n1 | -17% |
| O=C(CSc1nnc(-c2cccnc2)s1)Nc1ccnc2ccccc12 | -12% |
| Cc1cccc(OCCc2nnc(N)s2)c1C | -7% |
| Cc1ccc(-n2nc3cc(Cl)c(NC(=O)c4ccco4)cc3n2)cc1 | -23% |
| O=C1c2cccc3cccc(c23)C(=O)N1OS(=O)(=O)c1ccc(Cl)cc1 | ? |
| NS(=O)(=O)c1cc2c(cc1Cl)NC(C(Cl)Cl)NS2(=O)=O (configuration not stated) | 3%&-6% |
| CC(C)CN(C(=O)CSc1nnc2c(Cl)cc(C(F)(F)F)cn12)C1CCS(=O)(=O)C1 (configuration not stated) | ? |
| Nc1nnc(CSCc2ccccc2)s1 | 0% |
| O=C(/C=C/c1ccccc1)CC(O)(c1ccccc1)C(F)(F)C(F)F (configuration not stated) | -13% |
| O=C(CSCc1c(Cl)cccc1Cl)NCc1cccnc1 | -16% |
| Cc1ccc(NC2=CC(=O)C(=O)c3ccccc32)cc1 | 20µM* |
| CCOC(=O)C1C(=O)N(C(=O)c2cncc(Br)c2)CC1c1ccccc1 (configuration not stated) | -14% |
| Cc1nc2ccccc2n1Cc1n[nH]c(=S)n1-c1ccc(Cl)cc1 | -10% |
| O=S(=O)(O)c1nnc2sc3ccccc3n12 | -17% |
| Cc1cc(C(=O)Nc2ccccc2C#N)n(-c2ccccc2)n1 | -5% |
| COc1cccc(Nc2ncc3nc(-c4ccccc4)c(=O)n(C4CC4)c3n2)c1 | -10% |
| CCNc1nc(N)c(C(=O)c2ccc(Cl)s2)s1 | -20% |

Rewritten with each value named: entries from further up
O=C(Nc1ccc(Cl)cc1)Nc1nnc(CSCc2ccc(Cl)cc2)s1
  HPGD inh: -3%

Cc1nc(NCCN2CCOCC2)c2oc3ccccc3c2n1
  HPGD inh: -17%

O=C(CSc1nnc(-c2cccnc2)s1)Nc1ccnc2ccccc12
  HPGD inh: -12%

Cc1cccc(OCCc2nnc(N)s2)c1C
  HPGD inh: -7%

(listing goes on)
| Molecule | HPGD inh |
| --- | --- |
| Nc1ccc(Oc2ccc(Br)cc2)cc1 | -10% |
| CCOc1cccc(-c2cc(-c3n[nH]c(=S)n3CC)c3ccccc3n2)c1 | ? |
| S=C(c1ccc2c(c1)OCO2)N1CCCCC1 | -26% |
| COc1ccc(C(=O)NCc2nnc(SCC(=O)N3CCC(C)CC3)o2)cc1OC | 2% |
| Cc1cc(C)c2c(c1)NC(=O)C2(O)CC(=O)c1cccs1 (configuration not stated) | -2% |
| CCN1CCCC1CNC(=O)c1cn(CC)c2ccc(S(=O)(=O)N3CCCCCC3)cc2c1=O (configuration not stated) | -3% |
| CCOC(=O)N1CCN(C(=O)/C(=C/c2ccccc2OC)NC(=O)c2ccccc2)CC1 | 3% |
| COc1cccc(N(CC(=O)N2CCN(c3ccccc3OC)CC2)S(C)(=O)=O)c1 | -6% |
| CCCc1[nH]c(=O)c(C#N)c2c1COC(C)(C)C2 | ? |
| CC(C)OCCCNC(=O)c1ccc(NS(C)(=O)=O)cc1 | -8% |
| COc1cc(SC)ccc1C(=O)Nc1ccc(S(=O)(=O)N2CCCC2)cc1 | ? |
| COc1ccc(N2C(=O)C(Cl)=C(N(CCO)Cc3ccccc3)C2=O)cc1 | -7% |
| Cc1cc2nc(Sc3c([N+](=O)[O-])nc(C)n3Cc3ccccc3)[nH]c2cc1C | -22% |
| CNC(=O)c1cc(Cl)c(OC)c(OC)c1 | ? |
| CCCn1c(=O)c2c(ncn2C)n(CCC)c1=O | -15% |
| O=C(COc1ccc(S(=O)(=O)NC2CCCCC2)cc1)NCC1CCCO1 (configuration not stated) | -2% |
| Cc1ccc(C)c(S(=O)(=O)Nc2ccc3sc(C)nc3c2)c1 | -14% |
| Oc1ccc2ccccc2c1/C=N/Nc1nnc(-c2ncc[nH]2)c2ccccc12 | -13% |
| CCOc1ccc(C(C)(C)C)cc1S(=O)(=O)N1CC(C)OC(C)C1 (configuration not stated) | 0% |
| COc1ccc(-n2c(C)cc(C(=O)COc3ccc(C)nc3[N+](=O)[O-])c2C)cc1 | -12% |
| O=c1cc(CSc2nnc(Nc3ccccc3)s2)nc2sccn12 | 18µM* |
| Cc1cc([N+](=O)[O-])ccc1-c1ccc(C2Nc3ccccc3C(=O)N2O)o1 (configuration not stated) | ? |
| O=C1C=C(Nc2ccc(O)cc2)CC(c2ccco2)C1 (configuration not stated) | 22µM* |
| Cn1c(=O)cc(OCCCC(=O)N2CCN(c3ccccn3)CC2)c2ccccc21 | -16% |
| CSc1ccc(S(=O)(=O)Nc2ccc3c4c(cccc24)CC3)cc1 | -13% |

Remaining list, next part:
smiles,HPGD inh
N#Cc1c(-c2ccc(F)cc2)nc2n(c1=O)CCS2,-11%
COc1ccnc(N2CCN(c3ccc(Cl)cc3)CC2)c1C#N,?
CCOC(=O)Cc1c(C)c2c(C)nn(-c3ccccc3)c2oc1=O,-11%
Cc1ccc(NC(NC(=O)c2cccnc2)C(Cl)(Cl)Cl)cc1 (configuration not stated),-5%
O=C(C(Cc1ccccc1)N1C(=O)C2C3CCC(C3)C2C1=O)N1CCCCC1 (configuration not stated),-8%
COc1cccc(C(=O)N(Cc2ccccc2)Cc2cc3cc4c(cc3[nH]c2=O)OCCO4)c1,-18%
O=C(c1ccc(=O)[nH]c1)N(Cc1cccs1)C1(C(=O)NC2CCCC2)CCCCC1,-13%
Cc1nc2sc3c(c2c(=O)o1)CC(C)(C)OC3,-8%
CCOC(=O)N1CCN(C(=O)c2cccn3c(=O)c4sccc4nc23)CC1,?
CC1Cc2ccccc2N1C(=O)CSc1nc2ccccc2o1 (configuration not stated),-7%
CC1(C)Oc2cc(N)c([N+](=O)[O-])cc2O1,-8%
Cc1cc(NC(=O)c2ccccc2Cl)c(C(C)C)cc1O,-5%
O=C(C1CCCN(S(=O)(=O)c2cnc[nH]2)C1)N1CCN(Cc2ccccc2)CC1 (configuration not stated),-6%
Nc1nc2ccc(C(=O)NC3CCCCC3)cc2s1,-27%
O=C(CN1CCN(c2ccccc2)CC1)Nc1c(C(=O)C2CC2)oc2ccccc12,-13%

Entries from the list above that contain fluorine:
smiles,HPGD inh
CC(C)CN(C(=O)CSc1nnc2c(Cl)cc(C(F)(F)F)cn12)C1CCS(=O)(=O)C1 (configuration not stated),?
O=C(/C=C/c1ccccc1)CC(O)(c1ccccc1)C(F)(F)C(F)F (configuration not stated),-13%
N#Cc1c(-c2ccc(F)cc2)nc2n(c1=O)CCS2,-11%

Other compounds follow:
smiles,HPGD inh
CCC(C)C1/C=C\CCCC(=O)N1Cc1ccc(C)cc1 (configuration not stated),-10%
Cc1nn(Cc2ccc(Cl)cc2)c(C)c1NC(=O)CCCn1nc(C)c([N+](=O)[O-])c1C,-13%
Cc1ccc(C)c(S(=O)(=O)N2CC(=O)Nc3ccccc32)c1,0%
CCCn1c2ccccc2c2nnc(SC(CC)C(=O)Nc3cc(C)on3)nc21 (configuration not stated),-7%
CCOc1nc(-c2ccc(OC)cc2)ccc1-c1noc(C)n1,?
Cc1c(Nc2ncnc3c2cnn3-c2ccccc2)c(=O)n(-c2ccccc2)n1C,-1%
O=C(O)C1C2C=CC(O2)C1C(=O)Nc1ccc2c(c1)OCCO2 (configuration not stated),-6%
CC(C)C(=O)N(Nc1nc2ccccc2s1)C(=O)C(C)C,5%
Cc1ccc(S(=O)(=O)CCC(=O)Nc2nc3c(s2)CCCC3)cc1,-6%
Cc1onc(-c2c(F)cccc2Cl)c1C(=O)N1C=CC(C(F)(F)Cl)=NCC1,-5%
CN(C)S(=O)(=O)c1cccc(NC(=O)c2ccncc2)c1,0%
CCNC(=O)CC1C(=O)N(c2ccc(F)cc2)C(=O)N1CCC(C)C (configuration not stated),-3%
CC(C)CNC(=O)C1C2C=CC(C2)C1C(=O)O (configuration not stated),-3%
Cc1ccc(S(=O)(=O)N(C)c2ccc(OCC(=O)Nc3nc4c(ccc5ccccc54)s3)cc2)cc1,-13%
CN(C)CCCNC(=O)C1CCNCC1,-6%

Five entries from above, sorted by formula weight, low to high.
smiles,HPGD inh
CCC(C)C1/C=C\CCCC(=O)N1Cc1ccc(C)cc1 (configuration not stated),-10%
CN(C)S(=O)(=O)c1cccc(NC(=O)c2ccncc2)c1,0%
CCOc1nc(-c2ccc(OC)cc2)ccc1-c1noc(C)n1,?
Cc1c(Nc2ncnc3c2cnn3-c2ccccc2)c(=O)n(-c2ccccc2)n1C,-1%
Cc1onc(-c2c(F)cccc2Cl)c1C(=O)N1C=CC(C(F)(F)Cl)=NCC1,-5%

(continued)
smiles,HPGD inh
Cc1ccc(-n2[nH]c(C)c(/C=N/n3c(C)nc4ccccc4c3=O)c2=O)cc1,?
CCCn1c(N)c(Br)c(=O)[nH]c1=O,-10%
COc1ccc(N2C(=O)C3CCCN3C2c2ccccc2OC)cc1 (configuration not stated),-14%
CC(=O)Nc1ccccc1C(=O)C(=O)Nc1ccc(C)c(C)c1,-1%
Cc1cc(NCCCn2ccnc2)n2c(nc3ccccc32)c1C#N,?
COc1cccc(C2C3=C(N=C4SCC(=O)N42)c2ccccc2CC3)c1OC (configuration not stated),-18%
CC(=O)NC1(c2nnnn2CCOC(=O)Nc2ccc(Cl)cc2)CCCCC1,4%
COC(=O)c1ccc(C(=O)OC)c(NC(=O)CSc2ccccn2)c1,-22%
COc1ccc(S(=O)(=O)N2CCOCC2)cc1NC(=O)CN1CCC(Cc2ccccc2)CC1,-4%
CCCCCCC(=O)O,-8%
Cc1ccccc1CCN(C(=O)Cn1nnc2ccccc21)C(C(=O)NC(C)(C)C)c1ccsc1 (configuration not stated),-9%
Cn1c2c(c(=O)n(C)c1=O)C1c3cc(Cl)ccc3OCC1CO2 (configuration not stated),-4%
COc1ccc(-n2c(-c3ccccc3)nnc2-c2ccc(Cl)cc2)cc1,-17%
Cn1c(-c2ccc(Cl)cc2)cnc1N,-5%
CC(=O)[C@@H]1[C@@H](C)N(Cc2ccccc2)C(=O)N[C@H]1c1ccccc1,-9%
O=C(CSc1nnc2c(Cl)cc(Cl)cn12)N1CCN(S(=O)(=O)c2ccccc2)CC1,-8%
CCSc1nnc(NC(=O)COc2ccc3ccccc3c2)s1,-6%
CSCCC(NS(=O)(=O)c1ccc2ccccc2c1)C(=O)OCC(=O)c1ccc(C(C)C)cc1 (configuration not stated),-16%
COc1ccccc1[C@@H]1C(c2ccccc2)=NN(c2ccc(Br)cc2)[C@H]1C(=O)N1CCOC1=O,?
COc1ccc2ccccc2c1CN1CCN(C)CC1,3%
Cc1ccc(S(=O)(=O)N2CCC(C(=O)OC(C)C(=O)NCc3ccc4c(c3)OCO4)CC2)cc1 (configuration not stated),18µM*
O=c1[nH]c(=O)n([C@@H]2C[C@H](O)[C@H](CO)O2)cc1C(F)(F)F,-8%
CC(C)(C)NC(=O)COC(=O)c1cc(Br)ccc1Cl,-10%
Cc1cccc(S(=O)(=O)Nc2nc3ccccc3nc2Nc2ccc3c(c2)OCO3)c1,?
CN(C)CCCNC(=S)NCc1ccc(Cl)cc1,-12%
CCOC(=O)c1ncc2[nH]c3cccc(OC(C)C)c3c2c1C,-16%
CCCCOc1ccc(Br)cc1CSC(=N)N,-6%
Cc1ccc(C(=O)N/N=C\c2ccc[nH]2)cc1[N+](=O)[O-],-8%
CC(C(=O)OCC(=O)c1cccc([N+](=O)[O-])c1)N1C(=O)C2C3CCC(C3)C2C1=O (configuration not stated),-1%
O=C(Cn1cnc2sc(-c3ccccc3)cc2c1=O)N1CCOCC1,-8%
CCOC(=O)CSc1n[nH]c(NC(=O)c2ccc(F)cc2)n1,-16%
COc1nc2cc(C)ccc2cc1-c1noc(-c2cccnc2)n1,-12%
CSCCC(NC(=O)c1occc1C)C(=O)O (configuration not stated),4%
CC(=O)c1sc(NC(=O)C2(F)C(F)(F)C(F)(F)C(F)(F)C(F)(F)C2(F)F)nc1C,-17%
COCCNC(=O)C(c1ccc(C)o1)N(C(=O)c1snc(C(N)=O)c1N)c1ccc(C)cc1 (configuration not stated),-18%
Cc1ccc2[nH]c(=O)c3cc(C(=O)N4CCN(C(=O)c5ccco5)CC4)sc3c2c1,?
c1ccc(CNc2nc(N3CCOCC3)nc(N3CCOCC3)n2)cc1,-4%
Cc1cc(NS(=O)(=O)c2ccc(Nc3nc(-c4sc(NC(=O)c5ccccc5)nc4C)cs3)cc2)no1,?
Cc1ccc(NCc2nnc(SCc3ccc(C#N)cc3)n2Cc2ccco2)c(C)c1,1%
Cc1cc(C)nc(N(C#N)Cc2ccccc2)n1,-19%
CNC(=O)c1sc2nc(-c3ccc(OC)cc3)cn2c1C,-26%
C/C(=C\C[Si](C)(C)C)CC[C@H](O)C1=CCCCC1=O,-9%

An excerpt; rates above refer to the full screens.
